Bioassay records (PubChem BioAssay)
CSC inhib: cancer stem cell viability inhibitors, primary screen, luminescence | hit rate 1.1% among 300,000 | cancer stem cell-like cells viability | AID 2717, 2010 | inhibition, % at 7.5 µM;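 active = mean at 75% or more and at least half the replicates too; inconclusive = mean and replicates disagree; tested in HMLE shEcad cells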;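 note: 0% = median of negative and 100% = median of positive control wells; the first replicate is given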
UUG fidelity: modulators of yeast start codon fidelity, primary screen, whole organism, S. cerevisiae, single point, plate reader. AID 602363, 2012. activity score, % at 18.7 µM. S. cerevisiae UUG-firefly luciferase reporter, luminescence/redox ratio. hit rate 0.13% among 350,000;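 active = replicate mean at a twofold rise or more, about +100% in these data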;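 note: firefly luciferase made from a UUG start codon reports start codon fidelity; reporter light over untreated wells divided by growth signal over untreated wells; some hits fall short of that in this replicate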
PABP FP inh: PABP poly(A) RNA binding inhibitors, primary screen, biochemical, fluorescence polarization, uHTS. Polyadenylate-binding protein 1 (Homo sapiens), P11940. inhibition, % at 35 µM. hit rate 1% among 290,000. AID 2014, 2009;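 active = 50% or more with normal probe brightness, or confirmed in later tests; inconclusive = above 50% with abnormal brightness, or retests that disagree; inactive = below 50% or failed in later tests; about a fifth of its hits are not listed in these tables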;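 note: calls also rest on retests at 20 µM and on dose response follow-up; controls were probe without protein and protein plus probe with vehicle; some compounds called inactive have numbers as strong as hits; many hits fall short of the cut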
eIF4H FP inh: human eIF4H binding inhibitors, primary screen, translation initiation inhibitor project, biochemical, uHTS, fluorescence polarization. eIF4H fluorescence polarization binding assay. inhibition, % at 35 µM. AID 2012, 2009. Eukaryotic translation initiation factor 4H (Homo sapiens), Q15056. hit rate 0.94% among 290,000;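 active = 50% or more with normal probe brightness, or confirmed in later tests; inconclusive = above 50% with abnormal brightness, or retests that disagree; inactive = below 50% or failed in later tests; about a fifth of its hits are not listed in these tables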;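 note: calls also rest on retests at 20 µM and on dose response follow-up; 0% = protein and probe with vehicle and 100% = probe without protein; strong numbers were not always called active; many hits fall short of the cut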
MT1-MMP act inh: blockers of MT1-MMP proenzyme processing, primary screen, HT1080 RFP-PRO-GFP cells, GFP/RFP fluorescence. GFP/RFP ratio fluorescence, overnight; percent of plate control window, DMSO zero. hit rate 0.061% among 360,000. GFP/RFP ratio change, % at 20 µM;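 active = GFP/RFP ratio change of at least 30% with cell ATP level not reduced by more than half and red fluorescence within 50% of control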; note: strong numbers were not always called active
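Material: RFP-PRO-GFP reporter HT1080 cells. Dosing: single-point 20 µM compound, 1% DMSO. Controls: DMSO and RFP-L50D-GFP cell wells. Timing: cells overnight before dosing, compound overnight, 37 °C, 5% CO2. Measure: GFP/RFP fluorescence ratio.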
HIV Env fusion: inhibitors of HIV-1 Env-driven cell-cell fusion, primary screen, HeLa-JRFL effector, CEM21 target cells, luciferase. AID 651610, 2012. hit rate 1.1% among 360,000. inhibition, % at 12.3 µM;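 active = mean replicate inhibition score of at least 50 and every replicate individually at or above 50; inconclusive = only one of the two criteria met; inactive = mean below 50 and not all replicates reaching 50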;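 note: 0% = plate neutral controls and 100% = maraviroc near 300 nM; one replicate is shown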
Rce1 inh: yeast Rce1p protease inhibitors, primary screen, biochemical, fluorescence, cell-free homogeneous. AID 2563, 2010. yeast membranes, quenched prenylated peptide cleavage fluorescence. calls only. CAAX prenyl protease 2 (Saccharomyces cerevisiae (strain ATCC 204508 / S288c)), Q03530. hit rate 0.27% among 290,000;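 active = fall in fluorescence gain of 50% or more versus controls, with final raw signal at or below 3038400; inconclusive = same 50% fall but final raw signal above 3038400; inactive = fall in fluorescence gain under 50%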;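 note: plate controls were neutral control wells for no effect and wells lacking membranes for full effect; tested at 10 µM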
Target sequence (Q03530 whole entry, looked up): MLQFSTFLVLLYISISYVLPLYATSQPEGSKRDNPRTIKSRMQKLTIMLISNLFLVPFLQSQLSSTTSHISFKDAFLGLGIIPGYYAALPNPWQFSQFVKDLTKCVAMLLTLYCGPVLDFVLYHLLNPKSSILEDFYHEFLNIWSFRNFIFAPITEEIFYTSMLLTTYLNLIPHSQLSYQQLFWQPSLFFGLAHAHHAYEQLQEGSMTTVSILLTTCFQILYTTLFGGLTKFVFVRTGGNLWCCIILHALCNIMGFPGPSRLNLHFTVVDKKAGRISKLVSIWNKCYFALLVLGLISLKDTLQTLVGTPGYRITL
eIF4H FP inh retest: second read-out of eIF4H FP inh, no call of its own (marks repeat the call); inhibition, %; compound at 20 µM; confirmation average;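 mean of two retest wells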
PABP FP inh retest: recorded beside PABP FP inh, whose call it bears; inhibition, %; compound at 20 µM; confirmation repeats;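 mean of two retest wells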
MT1-MMP act inh RFP: further read-out of MT1-MMP act inh, marked with its call; RFP signal change, %; measured here: RFP expression control read;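 0 = vehicle wells; hits needed this value within 50% of zero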
An asterisk follows results filed as active; & = joins results of further samples; [ ] = remark or other dose. An excerpt; rates above refer to the full screens.

`Cc1cc(NC(=O)COC(=O)c2cccc(OCc3ccccc3)c2)no1` gave CSC inhib -5, UUG fidelity -7, PABP FP inh 8, eIF4H FP inh -13, MT1-MMP act inh 2, HIV Env fusion -109, Rce1 inh inactive and MT1-MMP act inh RFP 0.
Cc1cc(N/N=C/c2cccc(Cl)c2)nc(-n2nc(C)cc2C)n1 was read as CSC inhib 20, UUG fidelity -29, PABP FP inh 10, eIF4H FP inh 1, MT1-MMP act inh 0, HIV Env fusion 32, Rce1 inh inactive and MT1-MMP act inh RFP -5.
O=C(Cn1cnc2c(nnn2Cc2ccc(F)cc2)c1=O)NC1CCCC1 was read as UUG fidelity -17, PABP FP inh 5, eIF4H FP inh 6, MT1-MMP act inh 7, HIV Env fusion -20, Rce1 inh inactive and MT1-MMP act inh RFP -1.
`CCN1CCCc2cc(CN(CCN3CCOCC3)C(=S)Nc3cccc(OC)c3)ccc21` gave CSC inhib 5, PABP FP inh -3, eIF4H FP inh 5, MT1-MMP act inh -1, HIV Env fusion -6, Rce1 inh inactive and MT1-MMP act inh RFP 7.
COc1cccc(/C=C/C(=O)N2CCN(S(=O)(=O)c3ccccc3)CC2)c1OC was read as CSC inhib 9, UUG fidelity 13, PABP FP inh -9, eIF4H FP inh -5, MT1-MMP act inh 3, HIV Env fusion 5, Rce1 inh inactive and MT1-MMP act inh RFP 2.
For CCOC(=O)C1CCCN(Cc2ccc(O)c(OC)c2)C1 (stereo not drawn) the results were CSC inhib 0, UUG fidelity -1, PABP FP inh 15, eIF4H FP inh 12, MT1-MMP act inh 1, HIV Env fusion 6, Rce1 inh inactive and MT1-MMP act inh RFP 15.
For O=C(NCc1ccco1)C(=O)NCC1OCCN1S(=O)(=O)c1ccc(Br)cc1 (stereo not drawn) the results were CSC inhib -2, PABP FP inh -9, eIF4H FP inh -5, MT1-MMP act inh 3, HIV Env fusion -15, Rce1 inh inactive and MT1-MMP act inh RFP 3.
Screening COc1ccc(S(=O)(=O)NCc2ccco2)c2ccccc12 returned CSC inhib 7, UUG fidelity -6, PABP FP inh 8, eIF4H FP inh 3, MT1-MMP act inh 0, Rce1 inh inactive and MT1-MMP act inh RFP 3.
`O=C(NCCc1nc(-c2ccccc2)no1)c1ccccc1` gave CSC inhib -6, UUG fidelity -16, MT1-MMP act inh -1, HIV Env fusion -1, Rce1 inh inactive and MT1-MMP act inh RFP -6.
Screening COc1ccccc1CCNC(=O)C(=O)NCC1OCCN1S(=O)(=O)c1ccc(OC)c(OC)c1 (stereo not drawn) returned CSC inhib 5, UUG fidelity -14, PABP FP inh 3, eIF4H FP inh -2, MT1-MMP act inh -1, Rce1 inh inactive and MT1-MMP act inh RFP 0.
For Nc1ccc(C(=O)OCc2nc3cc4ccccc4cc3[nH]2)cc1 the results were CSC inhib 42, PABP FP inh -1, eIF4H FP inh -5, MT1-MMP act inh 3, HIV Env fusion 11, Rce1 inh inactive and MT1-MMP act inh RFP -3.
`Cc1cc(NC(=O)CCC(=O)N(Cc2ccccc2)C(C(=O)NC2CCCC2)c2ccc(C)o2)no1` (stereo not drawn) gave CSC inhib 6, UUG fidelity 11, PABP FP inh -1, eIF4H FP inh -1, MT1-MMP act inh -1, HIV Env fusion 36, Rce1 inh inactive and MT1-MMP act inh RFP 1.
`O=C(CSc1ccc2ccccc2n1)Nc1ccc(N2CCOCC2)cc1` gave CSC inhib -1, PABP FP inh inconclusive, eIF4H FP inh -2, MT1-MMP act inh 6, HIV Env fusion 5, Rce1 inh inactive and MT1-MMP act inh RFP -4.
CC1=NN(c2ccc(C(=O)O)c(N)c2)C(=O)C1 was read as CSC inhib 12, PABP FP inh 8, eIF4H FP inh 98*, MT1-MMP act inh 6, HIV Env fusion 13, Rce1 inh inactive, eIF4H FP inh retest 58*, PABP FP inh retest 14 and MT1-MMP act inh RFP 12.
Screening C[C@H]1CN(S(=O)C(C)(C)C)[C@@H](CCO)/C1=C\CCO (stereo partly drawn) returned UUG fidelity -11, MT1-MMP act inh 5, HIV Env fusion -14 and MT1-MMP act inh RFP 3.
For CC(c1ccccc1F)n1cc(C(=O)NCc2ccncc2)nn1 (stereo not drawn) the results were CSC inhib -15, UUG fidelity -12, PABP FP inh -8, eIF4H FP inh -4, MT1-MMP act inh -4, Rce1 inh inactive and MT1-MMP act inh RFP -1.
For COc1cc(CN2CCCC(C)C2)ccc1OCc1ccccc1 (stereo not drawn) the results were CSC inhib 5, UUG fidelity -15, PABP FP inh 9, eIF4H FP inh -10, MT1-MMP act inh 3, HIV Env fusion -9, Rce1 inh inactive and MT1-MMP act inh RFP 5.
`Cc1ccc([N+](=O)[O-])cc1NC(=S)NC(=O)c1cccs1` gave CSC inhib -2, PABP FP inh 2, eIF4H FP inh 2, MT1-MMP act inh 4, HIV Env fusion -16, Rce1 inh inactive and MT1-MMP act inh RFP 3.
`O=C(O)C1=C[C@H](c2coc3ccccc3c2=O)C[C@H](OCc2ccc(CO)cc2)O1` gave CSC inhib 4, UUG fidelity 2&-21, PABP FP inh 5, eIF4H FP inh 4, MT1-MMP act inh -1, HIV Env fusion 7[16.7 µM], Rce1 inh inactive and MT1-MMP act inh RFP -1.
`Cc1cc(C)c(OCC(=O)Nc2nc3ccccc3[nH]2)c(C)c1` gave PABP FP inh 3, eIF4H FP inh -1, MT1-MMP act inh -2, HIV Env fusion -6, Rce1 inh inactive and MT1-MMP act inh RFP 0.

Three structures already listed, arranged by molar mass, lowest first:
CC1=NN(c2ccc(C(=O)O)c(N)c2)C(=O)C1 was read as CSC inhib 12, PABP FP inh 8, eIF4H FP inh 98*, MT1-MMP act inh 6, HIV Env fusion 13, Rce1 inh inactive, eIF4H FP inh retest 58*, PABP FP inh retest 14 and MT1-MMP act inh RFP 12.
Screening C[C@H]1CN(S(=O)C(C)(C)C)[C@@H](CCO)/C1=C\CCO (stereo partly drawn) returned UUG fidelity -11, MT1-MMP act inh 5, HIV Env fusion -14 and MT1-MMP act inh RFP 3.
`O=C(O)C1=C[C@H](c2coc3ccccc3c2=O)C[C@H](OCc2ccc(CO)cc2)O1` gave CSC inhib 4, UUG fidelity 2&-21, PABP FP inh 5, eIF4H FP inh 4, MT1-MMP act inh -1, HIV Env fusion 7[16.7 µM], Rce1 inh inactive and MT1-MMP act inh RFP -1.

(listing goes on)
Screening Cn1c(SCC(=O)Nc2ccc3nc(SCC(=O)NC4CC4)sc3c2)nnc1-c1ccccc1 returned CSC inhib 23, UUG fidelity 0, PABP FP inh 4, eIF4H FP inh 14, MT1-MMP act inh 2, Rce1 inh inactive and MT1-MMP act inh RFP -5.
`NS(=O)(=O)c1ccc(CCNC(=O)CSCc2ccccc2)cc1` gave CSC inhib -13, PABP FP inh -4, eIF4H FP inh -1, MT1-MMP act inh -2, HIV Env fusion -6, Rce1 inh inactive and MT1-MMP act inh RFP 0.
For Cc1cccc(OCC(=O)Nc2ccc3c4c(cccc24)CC3)c1C the results were CSC inhib -6, PABP FP inh -8, eIF4H FP inh 12, MT1-MMP act inh 0, HIV Env fusion -4, Rce1 inh inactive and MT1-MMP act inh RFP 6.
`Cn1c(=NC(=O)C2CCN(S(=O)(=O)c3cccs3)CC2)sc2ccccc21` gave CSC inhib 0, UUG fidelity -11, PABP FP inh 1, eIF4H FP inh 4, MT1-MMP act inh -3&9, HIV Env fusion -5&11, Rce1 inh inactive and MT1-MMP act inh RFP -9&0.
COc1c(NC(C)=O)c2ccccc2c2ccccc12 was read as CSC inhib 2, UUG fidelity -16, PABP FP inh -1, eIF4H FP inh -7, MT1-MMP act inh -7, HIV Env fusion 8, Rce1 inh inactive and MT1-MMP act inh RFP 0.
Screening CC1(C)CC(=O)C(C=NCCN2CCNC2=O)=C(O)C1 returned CSC inhib -3, UUG fidelity 10, PABP FP inh -5, eIF4H FP inh 1, MT1-MMP act inh 2, Rce1 inh inactive and MT1-MMP act inh RFP 5.
O=C1COc2ccc(C(=O)COC(=O)COc3ccccc3[N+](=O)[O-])cc2N1 was read as CSC inhib -2, UUG fidelity -23, PABP FP inh -10, eIF4H FP inh -6, MT1-MMP act inh -3, HIV Env fusion 7, Rce1 inh inactive and MT1-MMP act inh RFP 1.
`CCC1CCC/C1=N\NC(=O)c1ccoc1C` (stereo not drawn) gave CSC inhib 20, UUG fidelity -13, PABP FP inh -3, eIF4H FP inh -9, MT1-MMP act inh 2, HIV Env fusion -1, Rce1 inh inactive and MT1-MMP act inh RFP 4.
For CC1CCN(CC(=O)NNC(=O)c2cccc(Br)c2)CC1 the results were UUG fidelity -6, PABP FP inh 17, eIF4H FP inh 2, MT1-MMP act inh 0, HIV Env fusion -4, Rce1 inh inactive and MT1-MMP act inh RFP 4.
Screening Cc1ccccc1NC(=O)CCC(=O)OCCCC(F)(F)C(F)(F)F returned CSC inhib -7, UUG fidelity 0, PABP FP inh 0, eIF4H FP inh 0, MT1-MMP act inh 6, HIV Env fusion -26, Rce1 inh inactive and MT1-MMP act inh RFP 4.
CCOC(=O)c1c(NC(=O)C2CCCN(S(=O)(=O)c3ccc(C)cc3)C2)sc2c1CCCC2 (stereo not drawn) was read as UUG fidelity -17, PABP FP inh 18, eIF4H FP inh 2, MT1-MMP act inh -6, HIV Env fusion 13, Rce1 inh inactive and MT1-MMP act inh RFP -16.
`CC(C)(C)NC(=O)/C=N/O` gave UUG fidelity -5, PABP FP inh 26, eIF4H FP inh 4, MT1-MMP act inh -8, HIV Env fusion 12, Rce1 inh inactive and MT1-MMP act inh RFP 0.
For C=CCn1c(N)cc(=O)nc1SCC(=O)Nc1ccccc1C(N)=O the results were CSC inhib -9, PABP FP inh 7, eIF4H FP inh -7, MT1-MMP act inh -3, HIV Env fusion 4, Rce1 inh inactive and MT1-MMP act inh RFP 2.
Screening CC(=O)Nc1sc(N/N=C/c2ccccc2)nc1-c1ccc(C)cc1 returned CSC inhib -5, PABP FP inh -7, eIF4H FP inh -9, MT1-MMP act inh 2, HIV Env fusion -22 and MT1-MMP act inh RFP 2.
Screening Cc1ccccc1NC(=O)COC(=O)c1ccc2nc(C)c(C)nc2c1 returned CSC inhib -13, UUG fidelity 7, MT1-MMP act inh 1 and MT1-MMP act inh RFP 1.
For O=C(NNC1=NCCCCC1)Nc1cccc(Cl)c1 the results were PABP FP inh -7, eIF4H FP inh -6, MT1-MMP act inh 0, HIV Env fusion -8, Rce1 inh inactive and MT1-MMP act inh RFP 2.
